Compound activity as filed in PubChem.
ClpP mod: qHTS Assay for Activators of ClpP | purified B. subtilis ClpP, FRET peptide cleavage, 20 min | 1.9% of 340,000 active | Potency, µM (doses to about 57.5 µM), without a hit: at the highest dose activity change, negative = active | AID 651965, 2013; active = well fitted falling curve with a large enough effect; inconclusive = small, poorly fitted or top-dose-only effect; inactive = no such curve, though single readings can be large or run the other way; note: potency is the fitted concentration of half-maximal effect; the source files actives as falling curves though it sought activators and does not explain the sign; nearly all actives have a fitted effect of over 65% in size; many hits overshoot -100%
Target sequence (P80244 whole entry, looked up): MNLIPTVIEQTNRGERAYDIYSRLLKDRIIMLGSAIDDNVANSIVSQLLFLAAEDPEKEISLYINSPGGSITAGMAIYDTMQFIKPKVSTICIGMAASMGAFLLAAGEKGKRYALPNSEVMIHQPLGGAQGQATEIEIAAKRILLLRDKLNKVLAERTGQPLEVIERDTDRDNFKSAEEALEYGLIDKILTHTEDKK
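Buffer: 100 mM Tris/HCl pH8, 100 mM KCl, 0.05% low protease BSA, 2.5% glycerol, 0.01% Tween-20. ClpP 10 microg/mL final; 20 min RT; delta FRET normalized to ADEP and DMSO controls.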
CtBP-E1A inh: qHTS Assay for Inhibitors of the CtBP/E1A Interaction | 0.49% of 340,000 active | activity change, % (no concentration beside the values) | AlphaScreen GST-E1A/His-CtBP binding, 1536-well; hits give low values; control for the full effect not named in the record | CtBP / adenovirus E1A interaction (AlphaScreen); in the data active means activity change below about -65%; inconclusive means about -30% to -65%; inactive means above about -30%; note: % is set by controls: 0 for no effect and ±100 for the full control effect; compound concentration not given in the record
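In 5 uL wells, 23 nL compound meets equimolar GST-E1A and His-CtBP (5X stock 125 nM each) for 2 h, 37 °C. Beads (5X, 50 ug/mL) then 1 h, 37 °C, dark.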
gsp agonist: qHTS for Agonist of gsp, the Etiologic Mutation Responsible for Fibrous Dysplasia/McCune-Albright Syndrome: qHTS | gsp mutant cells, cAMP HTRF, 30 min; control for the full effect not named in the record | Potency, µM (doses to about 76.9 µM), without a hit: at the highest dose activation (cAMP increase), hits mostly activators | 0.13% of 340,000 active; active = well fitted activation curve with a large enough effect; inconclusive = small, poorly fitted or top-dose-only effect, or another doubt; inactive = no such curve, though single readings can be large or run the other way; cell line not stated here;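 note: phosphodiesterase inhibitor Ro 20-1724 added with compounds to block cAMP breakdown; potency is the fitted concentration of half-maximal effect; nearly all actives have a fitted effect of over 60% in size; about a fifth of the inactives were tested at one dose only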
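Cells in DMEM/10% FBS with G418 were pretreated with compounds in DMSO plus […] (300 uM stock) for 30 min at 37C. cAMP was measured by HTRF (cAMP-d2 plus anti-cAMP antibody-K) after 30 min at room temperature.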
Sfp inh: qHTS Assay for Inhibitors of Bacillus subtilis Sfp phosphopantetheinyl transferase (PPTase); 4'-phosphopantetheinyl transferase ffp (Bacillus subtilis), Q9F4F7; Biochemical Sfp PPTase activity, qHTS; Potency, µM, without a hit: max response, negative = inhibition, hits mostly inhibitors; 3.5% of 310,000 active; AID 1490, 2009; active = well fitted inhibition curve with a large enough effect; inconclusive = small, poorly fitted or top-dose-only effect, or another doubt; inactive = no such curve, though single readings can be large or run the other way;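 note: the enzyme is Sfp with the accession as filed and its product quenches rhodamine fluorescence; potency is the fitted concentration of half-maximal effect; 0% = enzyme reaction without inhibitor and -100% = no enzyme wells; top concentration of the series not given in the record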
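Sfp 15 nM + cpd, 15 min RT; start w/ rhodamine-CoA 5 uM, BHQ-2-YbbR 12.5 uM (final); 50 mM Hepes pH 7.6, 10 mM MgCl2, 0.01% NP-40, 0.01% BSA; read 525/598 nm at 0 and 30 min.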
gsp antag: qHTS for Antagonists of gsp, the Etiologic Mutation Responsible for Fibrous Dysplasia/McCune-Albright Syndrome: qHTS. gsp-mutant cells, cAMP HTRF, 30 min; control for the full effect not named in the record. Potency, µM (series often up to 76.9 µM), for inactives: top-dose activity change, negative = inhibition, actives largely listed as inhibitors. 0.4% of 340,000 active. AID 624288, 2012; active = falling curve of any shape with a large fitted effect; inconclusive = falling curve, mostly with a smaller effect; inactive = flat or rising curve; cell line not stated here;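 note: intracellular cAMP measured with PDE inhibitor Ro 20-1724 present during compound exposure; potency is the fitted concentration of half-maximal effect; % is set by controls: 0 for no effect and ±100 for the full control effect; nearly all actives have a fitted effect of over 65% in size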
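Measurement of cellular cAMP by homogeneous time-resolved fluorescence following a 30 min compound exposure at 37C. The PDE inhibitor […] was present throughout; the assay buffer was DPBS with 0.05% BSA and 0.005% Tween 20.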
TRPV1 potentiator: HTS Assay for Compounds that Act as Potentiators of the Vanilloid Receptor 1; Transient receptor potential cation channel subfamily V member 1 (Homo sapiens), Q8NER1; 0.02% of 320,000 active; potentiation, % at 8.33 µM; TRPV1-expressing cells, Fluo-8 calcium influx, capsaicin EC20 potentiation; host cell line not named in the record; control for the full effect not named in the record; AID 540277, 2011; active means potentiation above 80%; inconclusive means 30% to 80%; inactive means below 30%; note: 0% is about no effect
Target sequence (Q8NER1 whole entry, looked up): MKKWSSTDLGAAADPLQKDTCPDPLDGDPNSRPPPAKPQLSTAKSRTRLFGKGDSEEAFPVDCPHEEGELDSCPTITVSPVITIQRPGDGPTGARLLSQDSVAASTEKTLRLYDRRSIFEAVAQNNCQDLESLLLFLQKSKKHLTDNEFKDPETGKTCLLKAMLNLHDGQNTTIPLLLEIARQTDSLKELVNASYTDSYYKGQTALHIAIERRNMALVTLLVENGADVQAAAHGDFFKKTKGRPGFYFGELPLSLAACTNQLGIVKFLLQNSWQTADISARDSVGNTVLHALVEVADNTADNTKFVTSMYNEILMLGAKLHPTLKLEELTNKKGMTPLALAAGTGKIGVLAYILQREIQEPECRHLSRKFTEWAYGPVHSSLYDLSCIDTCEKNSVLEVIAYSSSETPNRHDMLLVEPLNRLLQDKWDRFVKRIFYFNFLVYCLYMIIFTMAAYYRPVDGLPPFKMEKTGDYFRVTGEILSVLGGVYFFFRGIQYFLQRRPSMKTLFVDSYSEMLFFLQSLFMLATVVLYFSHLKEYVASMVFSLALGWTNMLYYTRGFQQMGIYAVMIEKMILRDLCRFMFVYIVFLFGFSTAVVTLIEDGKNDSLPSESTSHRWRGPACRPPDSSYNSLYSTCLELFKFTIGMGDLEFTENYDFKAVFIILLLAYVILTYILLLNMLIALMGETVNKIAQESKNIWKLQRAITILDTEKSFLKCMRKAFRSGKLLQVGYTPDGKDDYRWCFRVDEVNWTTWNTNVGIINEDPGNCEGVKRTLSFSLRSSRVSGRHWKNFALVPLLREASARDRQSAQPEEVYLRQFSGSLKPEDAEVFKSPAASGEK
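Cells expressing TRPV1 were dye-loaded with Fluo-8 and read kinetically: 10 s baseline, 3 min after compound (agonist portion), then 2 min after EC20 capsaicin (allosteric enhancer portion). Calcium-bound dye fluorescence at 480/520 nm.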
Menin MLL FP FL: qHTS Assay for Inhibitors Targeting the Menin-MLL Interaction in MLL Related Leukemias: Competition With Fluorescein Labeled MLL-derived Peptide; Fluorescence polarization, fluorescein-MLL peptide displacement from menin; FP activity change, % at 61.4 µM; 290,000 tested, under 10 active; AID 1766, 2009; inconclusive = falling polarisation curve, or a change in total fluorescence; inactive = total fluorescence flat and polarisation flat or rising; no compound was filed as active; the % refers to the polarisation; negative = inhibition;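 note: % of control where 0% means no effect; inhibitors lower the polarisation; unlabelled MLL peptide was the positive control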
Numbers without * were called inactive; ? = inconclusive; . = not tested or not shown; & = joins results of further samples; [ ] = dose if it differs, or a comment.

structure	ClpP mod	CtBP-E1A inh	gsp agonist	Sfp inh	gsp antag	TRPV1 potentiator	Menin MLL FP FL
CCOc1ccc(N(CC(=O)NCc2ccc(Cl)cc2)S(=O)(=O)c2ccccc2)cc1	.	-1	7%[15.4 µM]	3%	-16%	4	1.4
CCc1nc2n[nH]c(N)c2c2c1CCCC2	-3.4%	-6	?	4%	-7%	-4	1.3
O=C(CN1CCN(S(=O)(=O)c2cccc(F)c2)CC1)NCC1(N2CCOCC2)CCCCC1	-0.6%	-15	2%	.	-9%	-9	.
O=C(Nc1ccn(CCCNCCN2CCOCC2)c(=O)n1)OCc1ccccc1	-2.6%	-23	.	.	0%	.	.
O=CN1CCN(C(=O)c2ccccc2F)CC1	-0.7%	3	1%	17%	15%	?	-3.8
CC(C)CCNC(=O)C(=O)Nc1cc2c3c(c1)CCC(=O)N3CCC2	-1.0%	0	-4%	5%	3%	-7	3.6
COc1ccc(Nc2nnc(SCc3cn4c(C)cccc4n3)s2)cc1	0.2%	-1	-6%	4%	-1%	10	4.2
COc1ccc(N(CC(=O)N2CCN(C)CC2)S(=O)(=O)c2ccccc2)cc1	.	-9	-13%[15.4 µM]	12%	.	-1	-1.3
O=C(CN1CCC(NC(=O)c2ccccc2Cl)CC1)NCc1ccccc1	.	-3	-5%[15.4 µM]	15%	-5%	1	-11
Cc1ccc(OCCCCn2cnc3ccccc32)c(C)c1	2.5%	6	0%	50µM*	?	10	2.2
O=C(NC12CC3CC(CC(C3)C1)C2)c1cnccn1	1.8%	2	29%	-7%	20%	-16	-24
O=C(Nc1c2c(nn1-c1ccc(F)cc1)CSC2)c1ccc(S(=O)(=O)N2CCOCC2)cc1	-2.6%	2	-1%	6%	2%	-11	2.5
CCOc1ccc(CCNC(=O)c2ccc3ccccc3n2)cc1OCC	-4.0%	2	-27%	-19%	?	-5	.
CCN(CC)c1ccc(NC(=O)c2ccc(=O)[nH]c2)cc1S(=O)(=O)Nc1ccccc1OC	.	-22	-24%	14µM*	1%	-5	12
CCC1Sc2ccc(S(=O)(=O)CCC(=O)Nc3cccc(Br)c3)cc2NC1=O (configuration not stated)	-0.6%	-3	-30%	11%	-19%	0	-5.2
CN(C)c1nc(N(C)C)c2cnn(C)c2n1	0.0%	4	-12%[15.4 µM]	.	7%	.	.
CC(/C=C1\SC(=S)N(CC(=O)O)C1=O)=C\c1ccccc1	0.3%	4	4%	-23%&-16%	-20%	-3	11&5.9
CC(C)(C)NC(=O)NC(=O)CN1CCCCCCC1	.	0	1%[15.4 µM]	13%	.	-9	-0.2
COc1ccc(Cl)cc1NC(=O)C(C)N(C)Cc1cccc(Cl)c1Cl (configuration not stated)	-1.4%	13	17%	?	-3%	7	6.0
CCOc1ccccc1NC(=O)CCS(=O)(=O)c1cccs1	.	3	?	3%	10%	1	12
CCOc1ccc(NC(=O)CC2Nc3ccccc3NC2=O)cc1 (configuration not stated)	.	0	?	5%	-4%	-8	-2.3
COc1ccc(/C=C/C(=O)O)cc1S(=O)(=O)N1CCCCC1	1.0%	.	?	12%	-11%	-4	0.2
Clc1ccc(-c2cn(-c3ccccc3)c3[n+]2CCS3)cc1	.	5	1%	10%	9%	2	-2.3
COc1ccc(-n2c(SCC(=O)NCc3ccco3)nnc2-c2c[nH]c3ccccc23)cc1	-0.7%	-11	-16%	15%	-17%	9	1.8
CC(C)c1ccc(-n2nnnc2SCC(=O)NC2CC2)cc1	0.5%	.	-20%	.	0%	9	.

Overlap with the part before: two entries, followed by the next part.
structure	ClpP mod	CtBP-E1A inh	gsp agonist	Sfp inh	gsp antag	TRPV1 potentiator	Menin MLL FP FL
COc1ccc(-n2c(SCC(=O)NCc3ccco3)nnc2-c2c[nH]c3ccccc23)cc1	-0.7%	-11	-16%	15%	-17%	9	1.8
CC(C)c1ccc(-n2nnnc2SCC(=O)NC2CC2)cc1	0.5%	.	-20%	.	0%	9	.
CC(=O)Nc1c(Br)cc2c(c1Br)Cc1cc(Br)ccc1-2	2.2%	2	?	.	-10%	.	.
CCN1C[C@@H]2[C@@H]3C(=O)N(C)C(=O)[C@@H]3[C@](Cc3ccccc3)(C1=O)N2C(=O)c1ccccc1	-0.4%	.	-25%	.	12%	.	.
CC1CCc2c(sc3nc4n(c(=O)c23)CCS4)C1 (configuration not stated)	-1.2%	11	-3%	7%	-3%	-4	4.8
COC(=O)/C=C1\C(=O)N(c2nc3ccc(OC)cc3s2)C(=S)N1c1ccc(F)cc1	.	.	.	13%	.	-3	-0.9
COc1ccccc1OCc1nc(C#N)c(N2CC(C)CC(C)C2)o1 (configuration not stated)	1.3%	-24	-115%	15%	?	1	-0.1
COCCN(C(=O)COc1ccc(Cl)cc1)c1nnc(-c2cccnc2)s1	-1.2%	7	4%	10%	18%	11	-3.3
CCCCOCCCNS(=O)(=O)Cc1ccccc1	-3.4%	0	-64%[inhibitor]	0%	7%	2	-0.5
Cc1cc(OCC(=O)Nc2c(C(C)C)cccc2C(C)C)no1	-1.7%	5	29%	.	.	.	.
CCOC(=O)c1sc(NC(=O)CSc2nnc(-c3ccc(OC)cc3)n2CCOC)nc1C	3.0%	-7	11%	2%	-2%	1	-0.6
CC(C)C1(C)C(=O)N=C2c3ccccc3C(=O)N21 (configuration not stated)	3.1%	-1	26%	17%	4%	0	0.7
Cc1cc(C(=O)OCC(=O)NCCc2ccccc2)c2ccccc2n1	-15%	-8	1%	.	-11%	5	.
O=C(COC(=O)c1cc(Cl)ccc1[N+](=O)[O-])Nc1cccc2ccccc12	-1.4%	-2	1%	-10%	-12%	2	4.8
COc1ccc(CCNC(=O)c2cccc(NC3=NC4CS(=O)(=O)CC4S3)c2)c(OC)c1 (configuration not stated)	0.9%	1	-58%[inhibitor]	18%	5%	-21	-13
Cc1nnnn1CC(=O)Nc1ccccc1[N+](=O)[O-]	3.2%	11	-13%	2%	13%	-14	4.0
COc1ccc(CNC(=O)Cn2ccc(N)nc2=O)cc1	-0.6%	0	.	.	7%	2	.
COc1ccc(CC(=O)OCC(=O)NC2CCCCC2)cc1OC	-1.4%	11	31%[15.4 µM]	.	-8%	.	.
COc1ccc(-c2cc(C)no2)cc1S(=O)(=O)N(C)c1ccc(C)c(C)c1	-1.2%	-14	19%	-1%	?	-6	-2.3
CCc1ccc2[nH]c(=O)c(CN(CC3CCCO3)C(=S)NCc3ccco3)cc2c1 (configuration not stated)	-7.8%	-11	14%	3.5µM*	-16%	-3	12
Cc1ccc(-c2nn(-c3cccc(F)c3)cc2CN2CCN(c3ccccn3)CC2)o1	-25%	-16	-7%	40µM*	-23%	-7	3.5
COc1cccc(C2=CC(c3cccs3)n3nnnc3N2)c1 (configuration not stated)	-3.5%	3	9%	-17%	22%	-9	?
O=C(CCC1CCCC1)Nc1cccn(Cc2ccccc2Br)c1=O	-27%	21	9%	7%	-9%	-2	6.2
O=C(N/N=C/c1cccc([N+](=O)[O-])c1)c1ccc(CN2CCOCC2)cc1	-0.7%	2	-46%[inhibitor]	9%	4%	9	-3.4
Cn1c(=O)c2ccccc2n(CC(=O)NCCC2=CCCCC2)c1=O	.	7	15%	-10%	-3%	1	0.0
CC(=O)Nc1nc2ccc(-c3nc4ccccc4o3)cc2s1	89%	-1	?	0%	-2%	-32	3.2
CCN(CC(=O)Nc1ccccc1OC)C(=O)CN1C(=O)NC(C)(c2ccc(C)cc2)C1=O (configuration not stated)	-0.1%	-1	6%	.	2%	-4	.
Cc1cc(N2C(=O)C(O)=C(C(=O)c3cc4ccccc4o3)C2c2ccc([N+](=O)[O-])cc2)no1 (configuration not stated)	1.2%	.	-7%	18%	1%	-5	.
CCCN(Cc1cc2cc(OC)ccc2[nH]c1=O)C(=O)c1ccco1	.	-7	-10%[15.4 µM]	17%	3%	-7	6.6
CN(C)c1ccc(C(=O)Nc2ccc(S(=O)(=O)Nc3nccs3)cc2)cc1	?	-6	-53%[inhibitor]	10%	-1%	0	.
COc1ccc(CNC(=O)Cn2nc([N+](=O)[O-])cc2C)cc1	2.5%	.	28%	20%	8%	5	0.6
Cc1c(NC(=O)C2C3C=CC(C3)C2C(=O)O)c(=O)n(-c2ccccc2)n1C (configuration not stated)	1.2%	-4	-8%	18%	0%	2	-1.7
CCOc1ccc(Oc2ccccc2NC(=O)CSCC(=O)Nc2cc(C)on2)cc1	-2.7%	4	7%	.	-7%	-9	.
Cc1nc2c(C(=O)NCCC(C)C)c[nH]n2c(=O)c1Cl	32µM*	-7	5%	11%	-5%	10	0.6
CCCCC(=O)Nc1ccc(NC(=O)C2CC2)nc1	-1.4%	7	-40%[inhibitor]	-2%	12%	10	9.8
Cc1ccc(-n2c(-c3cc(C)n(C)n3)n[nH]c2=S)cc1	-1.6%	2	-13%	?	-10%	-9	-1.7
CCCNC(=O)C1CCN(S(=O)(=O)c2cccs2)CC1	-0.5%	4	22%	0%	12%	1	-2.7
Fc1ccc(F)c(C2=NNC(=Nc3ccccc3F)SC2)c1	-5.3%	-9	-38%[inhibitor]	-21%	13%	15	.
